Screens (PubChem BioAssay)
KCNQ2 block: KCNQ2 channel blockers in CHO-K1 cells – cell-based, FluxOR thallium flux, B-score, primary screen (AID 2156). B-score at 10 µM. 20 min; active compounds read low; only compounds with negative scores are shown here; some inactives read as strong as hits. actives 1.1% (n = 310,000);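 active means fluorescence ratio B-score at most minus 3 library SDs, with starting brightness B-score within 2 library SDs, cut at about -5.5 in these data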
Target sequence (O88943 whole entry, looked up): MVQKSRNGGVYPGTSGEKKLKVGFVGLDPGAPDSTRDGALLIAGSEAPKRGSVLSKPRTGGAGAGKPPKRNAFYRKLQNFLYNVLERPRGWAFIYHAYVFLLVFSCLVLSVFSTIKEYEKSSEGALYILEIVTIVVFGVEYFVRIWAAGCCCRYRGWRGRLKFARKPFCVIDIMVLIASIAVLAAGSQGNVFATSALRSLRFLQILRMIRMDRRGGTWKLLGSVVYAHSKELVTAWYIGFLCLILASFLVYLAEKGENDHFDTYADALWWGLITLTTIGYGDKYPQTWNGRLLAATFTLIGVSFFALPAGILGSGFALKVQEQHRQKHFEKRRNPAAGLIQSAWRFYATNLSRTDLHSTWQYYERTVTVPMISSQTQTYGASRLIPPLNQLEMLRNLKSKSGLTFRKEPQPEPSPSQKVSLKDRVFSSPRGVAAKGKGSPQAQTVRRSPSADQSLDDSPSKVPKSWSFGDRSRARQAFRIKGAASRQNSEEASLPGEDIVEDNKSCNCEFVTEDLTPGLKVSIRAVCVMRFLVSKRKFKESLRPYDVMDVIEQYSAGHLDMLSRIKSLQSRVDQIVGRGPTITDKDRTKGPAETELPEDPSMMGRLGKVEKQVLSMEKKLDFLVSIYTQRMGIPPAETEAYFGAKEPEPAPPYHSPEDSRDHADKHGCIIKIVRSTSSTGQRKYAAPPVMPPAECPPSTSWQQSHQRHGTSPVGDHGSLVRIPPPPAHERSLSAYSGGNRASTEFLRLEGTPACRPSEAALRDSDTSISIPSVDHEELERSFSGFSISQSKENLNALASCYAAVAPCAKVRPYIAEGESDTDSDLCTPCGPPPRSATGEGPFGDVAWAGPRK
KCNQ2 block baseline: second read-out of KCNQ2 block, no call of its own (marks repeat the call); B-score; measured here: initial fluorescence intensity artifact check;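 brightness before thallium and not channel activity; 0 = typical well and far values either way flag optical interference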
* = called active by the depositor; i = inactive. These rows are one share of the data, so the mix of outcomes need not match the whole.

KCNQ2 block,KCNQ2 block baseline,molecule
i,-0.27,O=C1CC(Sc2ccc(Cl)cc2)C(=O)N1c1ccc2c(c1)OCCO2 (configuration not stated)
i,1.9,CC(C)(C)c1ccc(OCC(=O)N2CCN(C=O)CC2)cc1
i,-1.5,COc1ccccc1N1CCN(S(=O)(=O)c2cccc(F)c2)CC1
i,-0.67,CN(C)CCNC(=O)c1onc(CSc2nc3ccccc3[nH]2)c1C(=O)NCCN(C)C
i,1.5,Cc1ccc(CS(=O)(=O)CCC(=O)NCC2CCCO2)cc1 (configuration not stated)
i,2,Cc1cc(NC(=O)CCC(=O)N(C2CC2)C2(C(=O)NC3CCCC3)CCC(C)CC2)no1 (configuration not stated)
i,0.48,OCCN(CCO)c1ccc2ccccc2c1
i,0.19,CC1=C(C)CC(C(=O)N2CCN(Cc3ccc4c(c3)OCO4)CC2)C(C(=O)O)C1 (configuration not stated)
i,-0.89,O=C(c1ccccc1)N1CCCCC(Sc2nnnn2-c2ccccc2)C1=O (configuration not stated)
i,-0.61,CCC(C)n1c(=N)c(C#N)cc2c(=O)n3cccc(C)c3nc21 (configuration not stated)
i,2,O=c1cc(-c2ccccc2)nc2nc(-c3ccco3)[nH]n12
i,0.22,CCOC(=O)CNC(=O)CSc1nc(C)cc(C)c1C#N
-5.8*,-0.4*,Cc1cc(C(=O)OC(C(=O)Nc2ccc(C)c(Cl)c2)c2ccccc2)c(C)o1 (configuration not stated)
i,-2,O=S(=O)(c1cccc(-c2n[nH]c(=S)n2Cc2ccccc2)c1)N1CCOCC1
i,0.52,COc1ccc(CN2CCNC(=O)C2CC(=O)NC2CCCC2)c(OC)c1 (configuration not stated)
i,0.88,O=C(CSc1nnc(-c2ccccc2Cl)o1)N1CCOCC1
i,-0.62,COc1ccc(C)cc1NCc1ccc(OC)c(C)c1OC
i,-0.04,CC1(C)Cc2c(sc3c2C(=O)N(c2ccccc2)C2=NCCN23)CS1
i,-1.1,COc1ccc(Br)cc1CN(C)C(=O)CNC(=O)c1ccc2ccccc2c1
i,-0.01,CN(Cc1ccccc1)CC(O)COc1ccc(CNCc2cccnc2)cc1 (configuration not stated)
i,-0.8,COC(=O)C(C(=O)OC)c1ccccc1[N+](=O)[O-]
i,0.59,O=C(C1CCCN(c2ncnc3c2nc2n3CCCCC2)C1)N1CCN(c2ccc(F)cc2)CC1 (configuration not stated)
i,0.98,COc1cccc(C(=O)NC(=S)Nc2ccc(Cl)c(C(=O)O)c2)c1
i,-1.8,Cc1ccc(NC(=O)CN(C)CC(=O)Nc2ccccc2C(=O)Nc2ccccc2)cc1
i,-0.97,S=c1[nH]ncn1/N=C/c1cccs1
i,1.6,COc1ccccc1-c1nn2c(=O)cc(C)nc2s1
i,2.9,O=C1c2cccc3cccc(c23)C(=O)N1CCCN1CCN(c2ccc(F)cc2)CC1
i,-0.05,O=C(COC(=O)/C=C/c1cccc(Br)c1)NCCc1ccccc1
i,-0.74,CCC1(C)Cc2ccccc2/C(=C/C(=O)N2CCCCC2)N1 (configuration not stated)
i,-1.9,CCCCC(=O)Nc1cccc(-c2nc3ncccc3o2)c1
i,-0.14,COc1ccc(-c2cc(C(=O)N(C)Cc3ccccc3F)c3ccccc3n2)cc1OC
i,-1.8,CCC(CNc1cc(OC)cc2cccnc12)NC1CCCCC1 (configuration not stated)
-6.1*,-1.1*,C/C(=N\Nc1nc(C)cc(-c2ccccc2)n1)c1ccc(C)o1
i,0.01,CC(Oc1ccc(-c2ccccc2)cc1)C(=O)N/N=C/c1cccnc1 (configuration not stated)
i,-1,Cc1cc(C)n(-c2nncn2NC(=O)c2ccc(Cl)cc2O)n1
i,-1.6,COc1ccccc1Nc1ncccc1C(=O)NCc1ccccc1

A few values from the results shown:
Reading of O=S(=O)(c1cccc(-c2n[nH]c(=S)n2Cc2ccccc2)c1)N1CCOCC1 under KCNQ2 block baseline: -2
Reading of CCCCC(=O)Nc1cccc(-c2nc3ncccc3o2)c1 under KCNQ2 block baseline: -1.9

Continued:
KCNQ2 block,KCNQ2 block baseline,molecule
i,-0.87,O=C(OCCN=C1NS(=O)(=O)c2ccccc21)c1ccccc1F
i,1,CCOc1ccc(CN2CCN(CC(O)Cn3c4ccccc4c4ccccc43)CC2)cc1 (configuration not stated)
i,1.3,CS(=O)(=O)N1CCC(C(=O)NCCN2CCN(Cc3ccccc3)CC2)CC1
i,-1.5,O=C(NCCCCNC(=O)c1ccccn1)c1ccccn1
i,0.79,O=C(CSc1ccsc1[N+](=O)[O-])N1CCCCC1
i,-0.39,CCCCN1C(N)=NC[C@@H]1c1ccccc1
i,0.7,C=Cc1ccc(Cn2c(=O)n(C)c(=O)c3sccc32)cc1
i,0.83,Cc1ccc(C)c(C(=O)COC(=O)c2cc([N+](=O)[O-])ccc2N2CCOCC2)c1
i,0.25,COC(=O)CN1C(=O)[C@H]2[C@@H](c3ccc(C)o3)N3C(=O)CN(Cc4ccccc4)C(=O)[C@@]3(Cc3ccccc3)[C@H]2C1=O
i,-0.04,O=C(OCc1cccc2ccccc12)c1ccc2c(=O)[nH]c(CN3CCOCC3)nc2c1
i,-0.05,COc1ccc(CC(=O)Nc2ccc3c(c2)CCC3)cc1S(=O)(=O)N1CCOCC1
i,0.81,Nc1nonc1C(=O)OCC(=O)N1CCCCC1
i,-1.2,Oc1c(CN2CCCC(C(F)(F)F)C2)cc(Cl)c2ccccc12 (configuration not stated)
i,1,O=C(COc1ccccc1F)NNC(=O)Cc1ccc(S(=O)(=O)N2CCOCC2)s1
i,2,CCOC(=O)C1CCCN(C(=S)NC(=O)/C=C/c2ccc(F)cc2)C1 (configuration not stated)
i,-0.01,CCOc1ccc(OCc2ccc(C(=O)N3N=C(C(F)F)CC3(O)C(F)F)o2)cc1 (configuration not stated)
i,-0.03,O=C(Nc1cccc(C(F)(F)F)c1)c1cc(Br)cc2c1OCC2
i,0.36,CCOc1ccc(N2C(=O)CN=C2Nc2ccccc2F)cc1
i,-0.18,CC(=O)c1ccc(S(=O)(=O)N2CCNCC2)cc1
i,-1.1,O=C(CS(=O)(=O)c1ccccc1)Nc1nc2ccccc2s1
i,-1.4,CCN1/C(=C/C=C/C=C/C=C/c2sc3ccccc3[n+]2CC)Sc2ccccc21
i,-0.71,CCc1c(C)sc(NC(=S)Nc2cccnc2)c1C(=O)OC
i,-0.86,Cc1cccc(NC(=O)CNC(=O)c2ccccc2Cl)n1
i,-1.9,Cc1ccc(C(=O)O/N=C2\CCCc3ccccc32)cc1
i,-2.4,Cc1cc(NS(=O)(=O)N(C)C)ccc1C(C)C
i,2,Cc1ccc(C(=O)CSc2ccc(-c3ccccc3)nn2)cc1
i,2.3,Oc1ccc(/C=N/N2CCCCC2)cc1O
i,-0.34,CCN(CC)C(=O)COc1ccc(-c2nnc(Nc3ccc(OC)c(C(=O)NC)c3)c3ccccc23)cc1
i,0.77,COc1cc2nc(C3CCC3)n(NC(=O)C(OC(C)=O)c3ccccc3)c(=O)c2cc1OC (configuration not stated)
i,-2.3,COc1ccc(-n2c(=S)[nH]c3sc4c(c3c2=O)CCN(C)C4)cc1
i,1.1,CC1(C)Cc2c(cnn2-c2cccc(F)c2)C(NC(=O)c2cc[n+]([O-])cc2)C1 (configuration not stated)
i,-0.97,Cc1cc(C)cc(Oc2nc(-c3ccccc3)cc(C)c2S(C)(=O)=O)c1
i,0.53,COc1ccc(/C=N/n2cnc3c([nH]c4ccccc43)c2=O)cc1CO
i,2.6,CCOc1cccc2sc(N(CCN(C)C)C(=O)c3ccc4ccccc4c3)nc12
i,1.4,COc1ccc(C2/C(=C(/O)c3ccc4c(c3)CC(C)O4)C(=O)C(=O)N2CCN2CCOCC2)cc1OC (configuration not stated)
i,0.29,O=C(c1ccc(CSc2ccccc2)cc1)N1CCN(c2ccccc2)CC1
i,0.38,Cn1c(SCc2nn[nH]n2)nc2c1c(=O)n(Cc1ccccc1Cl)c(=O)n2C
i,1.9,CCN(CC)S(=O)(=O)c1ccc2c(c1)oc(=O)n2CC(=O)N(C)C1CCCCC1
i,-0.14,COCCOC(=O)c1c(C)oc2ccc(OCc3ccccc3)cc12
i,-1.9,CCC1CCc2sc(C(=O)NCC(c3ccc(OC)cc3)N3CCCC3)cc2C1 (configuration not stated)
i,-0.53,CC(C)CC1Nc2ncnc(N3CCN(c4ccccc4)CC3)c2N(Cc2ccc(Br)cc2)C1=O (configuration not stated)
i,2.4,Cc1ccc(C(=O)N(CC(=O)NC2CCCC2)c2cccc(F)c2)s1
i,-2.8,CC1(C)Cc2c(sc3c2c2ncnn2c2nnc(SCC(=O)NCc4ccco4)n32)CO1
i,0.36,c1cc(-c2nnc3sc(C4CCCCC4)nn23)ccn1
i,4.2,CN1CCc2c(sc3c2C(=O)NC(c2ccccc2)N3)C1 (configuration not stated)
i,0.81,O=c1c2c3c(sc2ncn1/N=C/c1ccc([N+](=O)[O-])o1)CCCC3
i,-0.66,CCCCOCCCNC(=O)C1c2ccccc2Oc2ccccc21
i,1.2,CSCc1cc(N2CCOCC2)nc(SCc2ccc(Cl)cc2Cl)n1

15 structures from above, sorted by formula weight, smallest number first:
KCNQ2 block,KCNQ2 block baseline,molecule
i,0.36,c1cc(-c2nnc3sc(C4CCCCC4)nn23)ccn1
i,4.2,CN1CCc2c(sc3c2C(=O)NC(c2ccccc2)N3)C1 (configuration not stated)
i,-0.66,CCCCOCCCNC(=O)C1c2ccccc2Oc2ccccc21
i,-0.14,COCCOC(=O)c1c(C)oc2ccc(OCc3ccccc3)cc12
i,0.81,O=c1c2c3c(sc2ncn1/N=C/c1ccc([N+](=O)[O-])o1)CCCC3
i,2.4,Cc1ccc(C(=O)N(CC(=O)NC2CCCC2)c2cccc(F)c2)s1
i,1.1,CC1(C)Cc2c(cnn2-c2cccc(F)c2)C(NC(=O)c2cc[n+]([O-])cc2)C1 (configuration not stated)
i,0.29,O=C(c1ccc(CSc2ccccc2)cc1)N1CCN(c2ccccc2)CC1
i,-1.9,CCC1CCc2sc(C(=O)NCC(c3ccc(OC)cc3)N3CCCC3)cc2C1 (configuration not stated)
i,1.2,CSCc1cc(N2CCOCC2)nc(SCc2ccc(Cl)cc2Cl)n1
i,2.6,CCOc1cccc2sc(N(CCN(C)C)C(=O)c3ccc4ccccc4c3)nc12
i,1.9,CCN(CC)S(=O)(=O)c1ccc2c(c1)oc(=O)n2CC(=O)N(C)C1CCCCC1
i,-2.8,CC1(C)Cc2c(sc3c2c2ncnn2c2nnc(SCC(=O)NCc4ccco4)n32)CO1
i,1.4,COc1ccc(C2/C(=C(/O)c3ccc4c(c3)CC(C)O4)C(=O)C(=O)N2CCN2CCOCC2)cc1OC (configuration not stated)
i,-0.53,CC(C)CC1Nc2ncnc(N3CCN(c4ccccc4)CC3)c2N(Cc2ccc(Br)cc2)C1=O (configuration not stated)

More entries follow.
KCNQ2 block,KCNQ2 block baseline,molecule
i,-1.1,COc1cc(OC)c(C(=O)OCC(=O)Nc2ccccc2Cl)cc1OC
i,-0.79,CC(=O)N1CCN(S(=O)(=O)c2ccccc2)C1c1ccccc1 (configuration not stated)
i,0.01,CCn1c(C)c(C(C)=O)c(N2CCN(C(c3ccccc3)c3ccccc3)CC2)nc1=S
i,16,Cc1cccc(N2C(=O)c3cccc4c(N(C)CCO)ccc(c34)C2=O)c1
i,-0.52,COc1ccc(C(=S)N2CCN(S(=O)(=O)c3ccccc3)CC2)cc1
i,2.5,O=C(O)CC1SC(N/N=C/c2ccc(Br)cc2)NC1=O (configuration not stated)
i,0.61,COc1ccc(OC)c(NC(=O)CSc2nnc(-c3ccco3)n2-c2ccc(C(=O)O)cc2)c1
i,0.41,CCCCN(CC(O)COc1cccc(C)c1)CC(O)COc1cccc(C)c1 (configuration not stated)
i,0.38,CCCCOC(=O)C1C2C=CC3(CN(CCc4ccccc4)C(=O)C13)O2 (configuration not stated)
i,0.46,O=C(CSc1ccc2c(c1)OCCO2)NCCc1ccc(Cl)cc1Cl
i,-1.5,Cc1c(Cl)cccc1NC(=O)c1ccco1
i,1.1,CC(=O)c1c(N2CCN(c3ccccn3)CC2)nc(=S)n(-c2ccccc2)c1C
i,-0.22,CCOC(=O)N1CCC(Nc2c(NCCCN3CCN(CC)CC3)c(=O)c2=O)CC1
i,0.79,CSCCC(NC(C)=O)C(=O)OCC(=O)N(c1ccccc1)c1ccccc1 (configuration not stated)
i,0.77,O=C(O)c1ccc(S(=O)(=O)N2CCCC2)cc1
i,-0.18,CC(=O)Nc1ccc(NC(=O)CSc2ccc(C)cc2)cc1
i,0.01,CCOC(=O)C1=NN(c2ccccc2)C2=NC(C)=C(C(=O)OC)C(c3cccs3)N12 (configuration not stated)
i,1,Cc1nn(CC(=O)NCc2cccnc2)c(C)c1[N+](=O)[O-]
i,1.6,CCS(=O)(=O)N1CCC(C(=O)Nc2ccc3c(c2)CCC3)CC1
i,-1.2,Nc1n[nH]c(-c2ccc([N+](=O)[O-])cc2[N+](=O)[O-])n1
i,-0.65,COC(=O)C1CN(C(=O)C(C)Oc2ccc(C(C)C)cc2)c2ccccc2O1 (configuration not stated)
i,-1.2,CC(=O)N1N=C(c2ccccc2O)OC1(C)CC(=O)Nc1ccccc1 (configuration not stated)
i,0.03,CCOC(=O)c1c(C)nn(-c2ccc(NC(=O)c3cccs3)cc2)c1C
i,1.1,CC(=O)c1ccc2c(c1)Cc1cc(C(C)=O)ccc1-2
i,-1.7,COC(=O)c1ccccc1N1C(=O)[C@@H]2C(c3ccc(F)cc3)=NO[C@@H]2C1=O
i,-0.12,CCc1ccc(NC(=O)CSc2nnc(-c3cnccn3)n2C)cc1
i,-1.2,O=C(CCN1C(=O)c2ccccc2S1(=O)=O)NCc1ccccc1Cl
i,-0.7,CC1CCCN(Cc2nc3c(c(=O)n(C)c(=O)n3C)n2CCCc2ccccc2)C1 (configuration not stated)
i,1.1,Cc1sc2ncnc(N3CCC(C(=O)N(C)CC(=O)Nc4ccccc4Cl)CC3)c2c1C
i,-1.6,CN(Cc1ccccc1)C(=O)CSc1n[nH]c(N)n1
i,1.3,COc1nc(OC)nc(N2CCC(C(=O)Nc3cccc4ccccc34)CC2)n1
i,-0.14,COc1ccc(NC(=O)c2cccnc2)cc1
i,1.9,COCCCNC(=O)c1cc(Sc2ccc(F)cc2)nc2ccccc12
